Ecoli rRNA inh: selective bacterial rRNA inhibition in E. coli; E. coli WT GFP vs humanized-ribosome RFP mutants, fluorescence, 24 h; active compounds read low; DMSO median 0, no signal -100; GFP signal change (wild-type ribosome), % (test concentration not listed); 1.6% of 350,000 active; AID 720706;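 active = significant combined selectivity score with lowered wild-type GFP, culture density cut under 30%, mutant RFP and density less affected; inactive = any of these conditions unmet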; also: one replicate is shown; some compounds called inactive have numbers as strong as hits
AF4-AF9 inh: blocks AF4 peptide binding to human AF9. AlphaScreen, biotin-AF4 peptide binding to FLAG-AF9. inhibition, % at 10 µM. AID 651704. 0.47% of 350,000 active. P42568;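 active = every replicate reaching a set inhibition limit, whatever the replicate mean, cut at about 25% in these data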;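 also: 0% = plate neutral control median and 100% = total signal loss; the record names both 10 and 1 µM as test concentration; the first replicate is given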
Target sequence (P42568 whole entry, looked up): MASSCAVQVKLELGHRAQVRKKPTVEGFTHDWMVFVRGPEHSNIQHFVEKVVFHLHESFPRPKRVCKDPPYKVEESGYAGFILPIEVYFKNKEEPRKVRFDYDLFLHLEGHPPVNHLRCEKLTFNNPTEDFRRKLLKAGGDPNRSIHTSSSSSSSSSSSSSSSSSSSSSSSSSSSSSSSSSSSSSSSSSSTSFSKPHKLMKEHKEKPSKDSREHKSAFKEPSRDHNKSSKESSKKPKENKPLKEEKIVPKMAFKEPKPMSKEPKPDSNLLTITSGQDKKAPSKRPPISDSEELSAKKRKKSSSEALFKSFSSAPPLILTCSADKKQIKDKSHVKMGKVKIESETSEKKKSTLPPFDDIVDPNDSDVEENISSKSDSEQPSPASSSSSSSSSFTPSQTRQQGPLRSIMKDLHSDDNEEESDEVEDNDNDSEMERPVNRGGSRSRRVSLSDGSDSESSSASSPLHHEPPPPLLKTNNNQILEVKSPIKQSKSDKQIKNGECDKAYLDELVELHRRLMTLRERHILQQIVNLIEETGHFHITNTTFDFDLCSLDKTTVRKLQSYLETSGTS
Ecoli rRNA inh OD600: further read-out of Ecoli rRNA inh, marked with its call; OD600 change, %; measured here: OD600 growth;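 optical density of the mix in the first replicate; 0 = DMSO median and -100 = no signal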
Ecoli rRNA inh RFP: further read-out of Ecoli rRNA inh, marked with its call; RFP signal change, %; measured here: RFP humanized mutant strains;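 first replicate; 0 = DMSO median and -100 = no signal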
* marks the source's active call; other numbers are inactive results. Not all compounds are listed (hit frequency here may not be typical).

Values in the order: Ecoli rRNA inh RFP | Ecoli rRNA inh | AF4-AF9 inh | Ecoli rRNA inh OD600
NCC[C@@H]1CC[C@@H](NC(=O)C2CCC2)[C@H](CO)O1
 : -3.6 | 0 | 1.7 | -3
C[C@H]1CN([C@@H](C)CO)C(=O)Cc2cc(NC(=O)Nc3ccc(F)cc3)ccc2O[C@@H]1CN(C)CC1CC1
 : -2.4 | 9 | 3.4 | 22
COCC(=O)Nc1ccc2c(c1)OC[C@H](C)N(Cc1ccccc1OC)C[C@@H](C)[C@H](OC)CN(C)C2=O
 : -2.2 | 1 | 2.0 | 3
C[C@H](O)C#Cc1ccc2c(c1)O[C@H](CN(C)C(=O)CN(C)C)[C@@H](C)CN([C@H](C)CO)S2(=O)=O
 : 0.8 | -1 | -0.6 | -5
C[C@@H]1CN([C@H](C)CO)S(=O)(=O)c2ccc(C3=CCCCC3)cc2O[C@H]1CN(C)C(=O)Cc1ccccc1
 : 11 | -14 | 5.3 | -12
O=S(=O)(N[C@H]1CC[C@@H](CCn2cc(-c3ccc(F)cc3)nn2)O[C@@H]1CO)c1ccccc1F
 : 1.3 | -6 | -0.4 | -4
CN1CCN(C(=O)C[C@@H]2CC[C@@H]3[C@@H](COc4ccc(NC(=O)c5ccc(F)c(F)c5)cc4C(=O)N3C)O2)CC1
 : -0.1 | 0 | -1.3 | 4
OC[C@H]1[C@H](c2ccc(C#CC3CCCC3)cc2)[C@@H]2CN(CCC(F)(F)F)CCCCN12
 : -12 | -58 | 22 | -77
CNC[C@H]1Oc2ccc(NC(=O)Cn3cnnn3)cc2CC(=O)N([C@H](C)CO)C[C@@H]1C
 : 1.3 | 3 | -2.7 | 16
CC(CC(=O)Nc1ccc2c(c1)c(=O)n(C)n2-c1ccccc1)c1ccccc1 (configuration not stated)
 : 1.8 | 0 | -2.6 | -17
COCC(=O)N1CCCCN2[C@H](CO)[C@H](c3ccc(-c4cccc(C)c4)cc3)[C@@H]2C1
 : -0.9 | 0 | -0.3 | -4
CO[C@@H]1CN(C)C(=O)c2cc(NC(=O)Cc3ccccc3)ccc2OC[C@@H](C)N(C(=O)c2ccccc2F)C[C@H]1C
 : 2.3 | 0 | 0.9 | 1
Cc1cc(C(=O)Nc2cccc3c2O[C@H](CN(C)C(=O)Nc2c(C)noc2C)[C@@H](C)CN([C@@H](C)CO)C3=O)n(C)n1
 : -1.9 | 3 | -4.1 | 14
CC(C)C#Cc1ccc2c(c1)O[C@H](CN(C)C(=O)c1ccccc1)[C@@H](C)CN([C@H](C)CO)S2(=O)=O
 : 9.1 | -3 | 2.6 | -34
CC(C)NC(=O)NCC[C@H]1CC[C@H](NC(=O)CN(C)C)[C@@H](CO)O1
 : 3.8 | 3 | 1.8 | 7
Cc1noc(C)c1NC(=O)Nc1ccc2c(c1)C(=O)N([C@@H](C)CO)C[C@H](C)[C@@H](CN(C)C)OCCCC[C@H](C)O2
 : 1.5 | 4 | -18 | 13
O=C(N[C@@H]1CC[C@H](CCNC(=O)C2CCC2)O[C@@H]1CO)c1ccccn1
 : -0.6 | 0 | -1.7 | 4
CO[C@@H]1CN(C)C(=O)c2cc(NS(C)(=O)=O)ccc2OC[C@@H](C)N(C(=O)CN(C)C)C[C@H]1C
 : 0.1 | 1 | -0.8 | 3
COc1cccc(CNC(=O)[C@@H]2CCCN2C(=O)[C@@H]2CCCN2C(=O)c2cccc(OC)c2)c1
 : -1.3 | 1 | -2.8 | 13
CN1C(=O)c2cc(NC(=O)C3CC3)ccc2OC[C@H]2O[C@H](CC(=O)O)CC[C@H]21
 : -0.5 | 3 | -12 | -6
O=C(c1ccc2c(c1)OCO2)N1CC[C@@H]2[C@H](CO)Nc3ccc(-c4ccccc4)cc3[C@@H]21
 : 0.0 | -1 | -3.5 | 12
CC(=O)Nc1ccc(NC(=O)C2Cc3c(-c4cccc(F)c4)ccnc3O2)cc1 (configuration not stated)
 : 2.0 | -8 | 0.4 | -7
C[C@@H]1CN([C@@H](C)CO)C(=O)c2c(c3ccccc3n2C)-c2ccccc2CO[C@H]1CN(C)C(=O)Nc1ccccc1
 : 5.2 | 2 | 2.3 | -7
Cc1cc(C)c2cc(C#N)c(N3CCNCC3)nc2c1
 : 1.6 | -4 | -0.5 | -5
C/C=C/c1ccc([C@@H]2[C@@H](CO)N(S(=O)(=O)CC)C23CN(C(=O)CC)C3)cc1
 : 0.0 | 0 | -1.5 | 3
COCCNC(=O)C[C@H]1C[C@@H]2c3cc(NS(=O)(=O)c4ccccc4)ccc3O[C@@H]2[C@H](CO)O1
 : 0.3 | 2 | -1.1 | 5
C[C@@H]1CN([C@@H](C)CO)C(=O)c2cccc(NC(=O)C3CC3)c2O[C@@H]1CN(C)S(=O)(=O)c1cn(C)cn1
 : 1.0 | 1 | -2.2 | 5
CN1C(=O)c2cc(NC(=O)c3cc(F)cc(F)c3)ccc2OC[C@H]2O[C@@H](CC(=O)O)CC[C@@H]21
 : -1.0 | 3 | -2.2 | 6
C[C@H]1CN([C@@H](C)CO)C(=O)c2cc(C#CCN(C)C)cnc2O[C@H]1CN(C)C(=O)c1ccc2c(c1)OCO2
 : 0.8 | 4 | -0.3 | 8
O=C(Cc1ccncc1)NCC[C@H]1CC[C@H](NC(=O)Nc2ccc(F)cc2)[C@H](CO)O1
 : 1.0 | 2 | 0.0 | -7
COc1ccc(S(=O)(=O)Nc2ccc3c(c2)C(=O)N([C@@H](C)CO)C[C@@H](C)[C@@H](CN(C)C(=O)CCCN(C)C)OCCCC[C@H](C)O3)cc1
 : -3.9 | 2 | 0.6 | -5
C[C@@H]1CCCCO[C@H](CN(C)C(=O)Nc2ccc(C(F)(F)F)cc2)[C@@H](C)CN([C@H](C)CO)C(=O)c2cc(NC(=O)CCC(F)(F)F)ccc2O1
 : -4.8 | -3 | 0.4 | -11
COc1ccccc1NC(=O)N1CC(=O)N2[C@H](CO)[C@@H](c3ccc(C#Cc4ccc(F)cc4)cc3)[C@@H]2C1
 : 26 | 3 | -2.8 | -9
O=C(CN1CCOCC1)NCC[C@@H]1CC[C@@H](NC(=O)c2ccccc2F)[C@@H](CO)O1
 : -2.5 | 1 | -1.5 | 1
CCCNC(=O)Nc1ccc2c(c1)C(=O)N(C)C[C@H](OC)[C@H](C)CN(C)[C@H](C)CO2
 : -0.7 | 2 | -1.4 | 7
CCCNC(=O)C1(C)CCCN(Cc2ccc(C(F)(F)F)cc2)C1 (configuration not stated)
 : -1.4 | 1 | 0.8 | 23
C[C@H](CO)N1C[C@H](C)[C@@H](CN(C)Cc2ccc(-c3ccccc3)cc2)Oc2c(NC(=O)C3CC3)cccc2C1=O
 : 0.7 | -1 | 0.9 | 3
C[C@H]1CN([C@@H](C)CO)C(=O)Cc2cc(NC(=O)Cc3cn(C)c4ccccc34)ccc2O[C@H]1CN(C)Cc1ccccc1
 : 18 | 1 | 7.5 | -25
C[C@H]1CN([C@@H](C)CO)C(=O)c2cccc(NS(=O)(=O)c3ccc(Cl)cc3)c2O[C@H]1CN(C)Cc1ccc2c(c1)OCO2
 : 1.7 | -6 | 3.0 | -11
CC(C)CC#Cc1cnc2c(c1)C(=O)N([C@@H](C)CO)C[C@H](C)[C@@H](CN(C)CC1CCOCC1)O2
 : -6.1 | 6 | 0.3 | 11
C[C@H]1CN([C@@H](C)CO)C(=O)c2cc(NC(=O)C3CCCCC3)ccc2O[C@H]1CN(C)C(=O)Nc1ccc(F)cc1
 : -2.5 | 1 | 1.3 | -6
O=C(NCC1CCCCC1)[C@@H]1[C@@H](CO)[C@@H]2Cn3c(ccc(C4=CCCC4)c3=O)[C@H]1N2C(=O)CC1CC1
 : 1.6 | -4 | 5.6 | -8
C[C@@H]1CCCCO[C@@H](CN(C)C(=O)C2CCCCC2)[C@H](C)CN([C@@H](C)CO)C(=O)c2cc(NS(=O)(=O)c3ccc(F)cc3)ccc2O1
 : 1.3 | -2 | 0.4 | -7
Cc1nc(NC(=O)c2ccccc2)sc1-c1cc(C(=O)N2CCOCC2)nn1CCO
 : -1.0 | 16 | -1.0 | 14
C[C@@H]1CN([C@H](C)CO)C(=O)c2cc(C3=CCCC3)cnc2O[C@@H]1CN(C)C(=O)c1ccccc1
 : -2.8 | 6 | -1.5 | 7
COc1ccc(N2CCN(C(=O)c3[nH]c(C(F)(F)F)nc3-c3ccccc3)CC2)cc1
 : 1.2* | -26* | 3.2 | -10*
CCC(=O)Nc1ccc2c(c1)OC[C@@H](C)N(CCc1ccccc1)C[C@@H](C)[C@H](OC)CN(C)C2=O
 : 0.1 | -2 | 2.3 | -6
CO[C@H]1CN(C)C(=O)c2ccc(NS(=O)(=O)c3ccccc3C)cc2OC[C@@H](C)NC[C@H]1C
 : 1.5 | 1 | -3.5 | 6
COCC#Cc1ccc2c(c1)O[C@@H](CN(C)C(=O)NC(C)C)[C@H](C)CN([C@@H](C)CO)S2(=O)=O
 : -1.2 | 2 | -0.9 | -6
O=C(C[C@@H]1C[C@H]2c3cc(NC(=O)Cc4ccncc4)ccc3O[C@H]2[C@H](CO)O1)NCCN1CCCCC1
 : -0.6 | 5 | 8.6 | 3
CO[C@@H]1CN(C)C(=O)c2cc(NC(=O)C3CC3)ccc2OC[C@@H](C)N(C(=O)C2CCOCC2)C[C@H]1C
 : -1.1 | 3 | -2.0 | 8
O=C(N[C@H]1CC[C@@H](CCNS(=O)(=O)Cc2ccccc2)O[C@@H]1CO)c1ccccc1F
 : -1.0 | -1 | -3.1 | -3
C[C@@H]1CN([C@@H](C)CO)C(=O)c2cccc(NC(=O)c3ccncc3)c2O[C@H]1CN(C)C(=O)Nc1ccccc1
 : -1.5 | 5 | -0.1 | 13
CC=Cc1ccc2n(c1=O)C[C@@H]1[C@@H](CO)[C@H](C(=O)N3CCc4ccccc4C3)[C@H]2N1Cc1ccncc1 (mixture of isomers)
 : -0.7 | -1 | 2.2 | 3
C[C@@H]1CCCCO[C@@H](CN(C)Cc2ccccc2)[C@@H](C)CN([C@H](C)CO)C(=O)c2cc(NS(=O)(=O)c3ccc(F)cc3)ccc2O1
 : 0.6 | 2 | 3.7 | -8
CC(C)NC(=O)N(C)C[C@H]1Oc2ccc(NC(=O)Cc3ccccc3)cc2C(=O)N([C@@H](C)CO)C[C@@H]1C
 : -0.5 | 1 | -1.8 | -1
COc1ccc(S(=O)(=O)N2CCCc3nc(-c4ccc(F)cc4)ccc32)cc1
 : 0.0 | 1 | -0.3 | 3
N#C[C@H]1[C@H](c2ccc(C3=CCCCC3)cc2)[C@@H](CO)N1C(=O)CN1CCOCC1
 : 1.0 | 5 | 1.6 | 8
Cc1noc(C)c1NC(=O)N(C)C[C@H]1Oc2ccc(NC(=O)Cc3cn(C)c4ccccc34)cc2C(=O)N([C@@H](C)CO)C[C@@H]1C
 : 2.3 | 4 | -10.0 | 1
CCCC#Cc1ccc2c(c1)O[C@@H](CN(C)C(=O)C1CC1)[C@@H](C)CN([C@@H](C)CO)S2(=O)=O
 : 4.6 | 1 | 1.5 | -13

Some of the entries above in another layout:
C[C@@H]1CN([C@@H](C)CO)C(=O)c2c(c3ccccc3n2C)-c2ccccc2CO[C@H]1CN(C)C(=O)Nc1ccccc1
  Ecoli rRNA inh RFP = 5.2 | Ecoli rRNA inh = 2 | AF4-AF9 inh = 2.3 | Ecoli rRNA inh OD600 = -7
Cc1cc(C)c2cc(C#N)c(N3CCNCC3)nc2c1
  Ecoli rRNA inh RFP = 1.6 | Ecoli rRNA inh = -4 | AF4-AF9 inh = -0.5 | Ecoli rRNA inh OD600 = -5

The listing continues:
Values in the order: Ecoli rRNA inh RFP | Ecoli rRNA inh | AF4-AF9 inh | Ecoli rRNA inh OD600
C[C@H](CO)N1C[C@H](C)[C@@H](CN(C)C)Oc2ccc(NC(=O)CCC(F)(F)F)cc2CC1=O
 : 0.8 | 3 | -4.1 | 4
C[C@H]1CN([C@@H](C)CO)C(=O)c2cccc(NC(=O)c3ccncc3)c2O[C@H]1CN(C)Cc1ccc(C(=O)O)cc1
 : -0.6 | 0 | -1.6 | 3
CN(C)CC(=O)Nc1ccc2c(c1)[C@H]1C[C@@H](CC(=O)NCCc3ccccc3)O[C@H](CO)[C@H]1O2
 : -1.0 | 3 | -1.6 | -2
CCCNC(=O)N(C)C[C@H]1Oc2ncc(C#CCC(C)C)cc2C(=O)N([C@@H](C)CO)C[C@H]1C
 : 2.7 | -2 | -1.8 | 2
Cc1cc(CNC[C@H]2O[C@@H](n3ccc(=O)[nH]c3=O)[C@H](O)[C@@H]2O)no1
 : -5.9 | 0 | -2.5 | -2
CC(C)NC(=O)N(C)C[C@@H]1Oc2ccc(NC(=O)Nc3ccccc3)cc2C(=O)N([C@H](C)CO)C[C@H]1C
 : -2.0 | -2 | -0.9 | 10
O=C(C1CCCCC1)N1CC(=O)N2[C@H](CO)[C@@H](c3ccc(C#CCc4ccccc4)cc3)[C@@H]2C1
 : 12 | 1 | 1.6 | -6

Limited to Ecoli rRNA inh RFP, AF4-AF9 inh and Ecoli rRNA inh OD600 (4 entries from above):
Molecule	Ecoli rRNA inh RFP	AF4-AF9 inh	Ecoli rRNA inh OD600
COc1ccc(S(=O)(=O)Nc2ccc3c(c2)C(=O)N([C@@H](C)CO)C[C@@H](C)[C@@H](CN(C)C(=O)CCCN(C)C)OCCCC[C@H](C)O3)cc1	-3.9	0.6	-5
O=C(N[C@H]1CC[C@@H](CCNS(=O)(=O)Cc2ccccc2)O[C@@H]1CO)c1ccccc1F	-1.0	-3.1	-3
Cc1cc(C)c2cc(C#N)c(N3CCNCC3)nc2c1	1.6	-0.5	-5
C[C@H]1CN([C@@H](C)CO)C(=O)Cc2cc(NC(=O)Nc3ccc(F)cc3)ccc2O[C@@H]1CN(C)CC1CC1	-2.4	3.4	22
